Screens: PubChem, several laboratories
HSV replic up = enhancers of HSV replication in host cells, fold increase, host cell viability; HSV replication augmentation in cells; maximum fold increase; 220,000 tested, 0.005% active;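 active = peak rise of 1.5-fold or more in the series; tested in PC3 cells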;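 note: first round at 10 µM; read as green reporter fluorescence; hits show the peak of a series up to 25 µM; 1 = signal of infected wells without compound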
Insulin prom inh = inhibitors of insulin promoter-driven GFP, primary screen, imaging, TRM-6 cells (human fetal islet line), eGFP reporter, cell count; 130,000 tested, 0.9% active; AID 1273, 2008; inhibition, % at 2 µM; reporter expression induced with tamoxifen;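 active = inhibition above the mean plus 3 SD, with well images judged a real hit on visual review, cut at about 60% in these data, passing the limit was not always enough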
GALR2 ag = GALR2 receptor agonists, primary screen, cell-based. Galanin receptor type 2 (Homo sapiens), O43603. GALR2-expressing cells, agonist activation read-out. activation, %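 (tested at 5 µM)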. 140,000 tested, 0.48% active;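 active = above mean plus 3 SD of all compounds, about 5% in these data, not always enough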;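 note: 0% = vehicle buffer wells and 100% = reference agonist at full effect; tested in CHO reporter cells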
Target sequence (O43603 whole entry, looked up): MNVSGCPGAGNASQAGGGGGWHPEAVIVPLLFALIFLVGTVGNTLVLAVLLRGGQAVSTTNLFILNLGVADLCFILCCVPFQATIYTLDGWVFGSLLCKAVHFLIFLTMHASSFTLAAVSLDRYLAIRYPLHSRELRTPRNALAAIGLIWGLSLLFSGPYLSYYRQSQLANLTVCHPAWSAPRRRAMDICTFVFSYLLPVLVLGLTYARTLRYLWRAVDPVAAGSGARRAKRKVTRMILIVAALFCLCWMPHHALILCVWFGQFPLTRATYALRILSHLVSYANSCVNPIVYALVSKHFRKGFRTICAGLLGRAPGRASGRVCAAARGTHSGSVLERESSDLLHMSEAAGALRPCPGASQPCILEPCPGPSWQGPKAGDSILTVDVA
PKD1 inh = inhibitors of human PKD1 kinase, biochemical, fluorescence polarization | Serine/threonine-protein kinase D1 (Homo sapiens), Q15139 | PKD1 kinase fluorescence polarization assay | inhibition, %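 (about 10 µM by stock and volumes)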 | 200,000 tested, 0.056% active;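 active = inhibition of 50% or more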;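 note: controls were vehicle for no effect and a reference inhibitor for full effect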
RGS16-Gao HTS = modulators of RGS16 binding to Galphao, primary screen, biochemical, human proteins, multiplexed bead flow cytometry; Regulator of G-protein signaling 16 (Homo sapiens) + Guanine nucleotide-binding protein …; 220,000 tested, 0.38% active; binding response (% of control), % at 10 µM; bead-based flow cytometry RGS16-Galphao binding, fluorescence; actives lie on both sides;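 active = below 25% or above 175%, edge rows of some plates excepted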;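 note: Galphao activated by GDP with aluminum fluoride before binding; 100% = wells without compound and 0% = beads without RGS; some results beyond the cut were filed as inactive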
Target sequence (O15492 whole entry, looked up): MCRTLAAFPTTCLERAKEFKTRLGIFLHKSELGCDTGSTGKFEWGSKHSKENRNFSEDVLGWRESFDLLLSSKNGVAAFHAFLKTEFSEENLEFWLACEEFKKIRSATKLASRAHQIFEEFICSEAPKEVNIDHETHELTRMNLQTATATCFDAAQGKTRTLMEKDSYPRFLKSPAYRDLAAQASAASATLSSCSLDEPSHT
Target sequence (P09471 whole entry, looked up): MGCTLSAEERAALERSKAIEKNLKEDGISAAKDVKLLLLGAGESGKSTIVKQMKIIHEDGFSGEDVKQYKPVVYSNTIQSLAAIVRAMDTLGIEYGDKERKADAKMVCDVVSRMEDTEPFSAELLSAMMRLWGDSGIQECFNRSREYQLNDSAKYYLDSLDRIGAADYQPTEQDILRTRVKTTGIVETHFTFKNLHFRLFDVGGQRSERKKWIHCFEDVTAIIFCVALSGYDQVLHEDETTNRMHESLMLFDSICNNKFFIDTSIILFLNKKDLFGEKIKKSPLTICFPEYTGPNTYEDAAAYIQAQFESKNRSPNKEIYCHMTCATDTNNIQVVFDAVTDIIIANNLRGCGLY
Insulin prom inh cell count = recorded beside Insulin prom inh, whose call it bears; normalized cell count, %; measured here: cell count, toxicity; reference of the scale not given here;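 cells exposed to compound for 48 h; stained nuclei by imaging scaled within each plate; lower means fewer cells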
HSV replic up primary fold = further read-out of HSV replic up, marked with its call; fold increase; compound at 10 µM; measured here: primary screen fold increase 10 uM; tested in PC3 cells;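 GFP signal in the first replicate; 1 = infected wells without compound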
Starred values were filed as active, the others as inactive; i = inactive; nt = no result given.

SMILES	HSV replic up	HSV replic up primary fold	Insulin prom inh	Insulin prom inh cell count	GALR2 ag	PKD1 inh	RGS16-Gao HTS
O=Cc1cn(-c2ccccc2)nc1-c1cccnc1	i	0.85	nt	nt	nt	6	99
CCOC(=O)C1=C(C)NC(=S)N(C(C)=O)C1c1ccc(Cl)cc1 (stereo not given)	i	1	-14	95	-2.0	-4	70
COc1ccc(CN2CCCC(C(=O)c3ccc(Cl)cc3)C2)cc1Cn1cncn1 (stereo not given)	i	0.97	nt	nt	nt	7	106
O=C(CCC(NC(=O)OCc1ccccc1)C(=O)OCC(=O)N1CCCCC1)OCC(=O)N1CCCCC1 (stereo not given)	i	0.98	-16	86	-0.6	-11	89
O=C(Nc1ccccc1Cl)N1CCN(c2ccccn2)CC1	i	0.83	33	88	-0.4	-4	98
Cc1cc(C)n2nc(SCc3ccccc3)nc2n1	i	1	nt	nt	nt	nt	88
NS(=O)(=O)c1ccc(-c2ccc(C=NC3CCS(=O)(=O)C3)o2)cc1 (stereo not given)	i	0.98	nt	nt	-2.6	-2	98
O=C(CCC(=O)N1CCN(c2ccc(F)cc2)CC1)c1ccc(F)cc1	i	1	nt	nt	nt	nt	109
CCc1nc(N=Nc2c(O)[nH]c3ccccc23)c2c3c(sc2n1)CCC3	i	0.76	-56	73	-1.8	0	128
CC(C)(C)n1nnnc1C(c1cccc(C(F)(F)F)c1)N1CCC(O)CC1 (stereo not given)	i	0.87	nt	nt	nt	0	101
Cc1ccc(CNC(=O)CN(C2CCCCC2)S(C)(=O)=O)cc1	i	1	-446	57	-2.0	-2	104
CN1c2ccccc2C(C)(C)C12C=Nc1c(cc(N3CCOCC3)c3ccccc13)O2 (stereo not given)	nt	nt	-30	106	-0.4	9	97
Cc1ccc2nc(SC(C(=O)Nc3ccc(F)cc3)c3ccccc3)[nH]c2c1 (stereo not given)	i	1.1	23	103	0.1	-2	103
O=c1cc(O)c2sc(Nc3ccc(F)c(Cl)c3)nc2[nH]1	i	0.91	nt	nt	nt	-5	99
CC1=CC(C)(C(Cl)Cl)C(C)=CC1=O (stereo not given)	i	0.76	-33	164	0.6	-2	103
CC(OC(=O)C1CC1)C(=O)Nc1cc(C(F)(F)F)ccc1Cl (stereo not given)	i	0.99	21	100	nt	10	101
CCC1=C(OC(=O)N(CC)CC)N2C(=O)OC(=NCC3CC3)[C@]2(Cc2ccccc2)[C@H]2C1=CC[C@H]1C(=O)N(CC(=O)OC)C(=O)[C@H]12	i	0.92	nt	nt	nt	nt	103
COc1ccc2nc(Nc3nc(-c4cc5ccccc5oc4=O)cs3)sc2c1	i	1.1	0	93	-0.5	-4	105
COCCN(C(=S)Nc1ccc(OC)c(Cl)c1)C1CCN(C(C)C)CC1	i	0.92	-27	74	nt	-12	94
O=C(NNC(=S)NC1CCCCC1)c1cccs1	i	1.1	50	66	-1.8	2	32
Cc1oc2ccc(OCc3ccccc3F)cc2c1C(=O)O	i	1	-7	72	0.0	0	44
Cc1cccc(NC(=S)NC2CC3CCCC(C2)N3CC(C)C)c1C (stereo not given)	i	0.96	-211	63	1.0	-5	nt
CCOc1ccc(N2C(=O)CC(NCc3ccc(F)cc3)C2=O)cc1 (stereo not given)	i	0.98	-40	89	-0.4	-4	98
O=C(Nc1ccccc1)c1sc2cc(C(F)(F)F)cnc2c1-c1cccs1	i	0.93	-22	76	-0.7	-6	89
Cc1ccc2c(c1)c1ccc3c(c1n2C)C(=O)C=CC3=O	i	1	nt	nt	nt	nt	74
CCOC(=O)/C(C#N)=C/Nc1ccccc1NS(=O)(=O)c1ccc(C)c(C)c1	i	1	nt	nt	nt	nt	100
Fc1ccc2c(c1)C(c1ccncc1)=NNC(c1ccc(Br)cc1)=N2	i	0.94	-3	122	-0.8	-5	109
CSCCC(NC(=O)c1ccccc1)C(=O)N/N=C(\C)c1ccccc1 (stereo not given)	i	0.89	14	108	-1.8	0	106
Cc1ccc(-n2cc3c(-c4cccc(Br)c4)nnc(C)c3n2)cc1	i	0.96	-71	185	-1.7	-6	107
COCCNC(=O)CSc1nc2ccccc2c2nc(C)nn12	i	0.93	-64	142	2.3	-6	101

Compound profiles, as listed above. Order of values: HSV replic up	HSV replic up primary fold	Insulin prom inh	Insulin prom inh cell count	GALR2 ag	PKD1 inh	RGS16-Gao HTS
CCOC(=O)/C(C#N)=C/Nc1ccccc1NS(=O)(=O)c1ccc(C)c(C)c1 reads i	1	nt	nt	nt	nt	100
CSCCC(NC(=O)c1ccccc1)C(=O)N/N=C(\C)c1ccccc1 (stereo not given) reads i	0.89	14	108	-1.8	0	106
O=C(Nc1ccccc1)c1sc2cc(C(F)(F)F)cnc2c1-c1cccs1 reads i	0.93	-22	76	-0.7	-6	89

The list continues.
SMILES	HSV replic up	HSV replic up primary fold	Insulin prom inh	Insulin prom inh cell count	GALR2 ag	PKD1 inh	RGS16-Gao HTS
COc1ccc(C2=NNC(c3cccnc3)=Nc3ccccc32)cc1	i	1.1	-50	101	nt	6	99
O=C(NN1C(=O)c2ccccc2C1=O)C1C2CCCCC21 (stereo not given)	i	0.95	-17	98	-1.6	1	105
O=C(NCc1cccnc1)c1ccc(COc2cccc3ccccc23)o1	i	0.79	8	50	-0.6	5	41
Cc1ccc(-c2ccc3nnc(SCC(=O)NCC4CCCO4)n3n2)cc1 (stereo not given)	i	0.93	nt	nt	nt	-5	104
N#Cc1nc(-c2cccs2)oc1NCc1ccc(Cl)cc1	i	0.93	9	121	-1.6	-4	67
COc1cc2ccccc2cc1C(=O)NC(=S)Nc1cccc(C(=O)O)c1C	i	0.99	nt	nt	nt	nt	90
COc1ccc(C2C3=C(CCCC3=O)Nc3ccc4ncccc4c32)cc1OC (stereo not given)	i	1	nt	nt	nt	5	98
NC(=O)c1ccc(NC(=O)c2cccc3c2OCCCO3)cc1	i	0.83	nt	nt	nt	nt	82
Cc1c(C(=O)NCc2cccnc2)sc2nc(-c3ccc(F)cc3)cn12	i	0.89	nt	nt	-1.6	54*	101
CC[C@@H](C)[C@H](NC(=O)C1CCN(C(=O)[C@@H](NS(=O)(=O)c2ccc(C)cc2)C(C)C)CC1)C(=O)O	i	1	33	72	-1.4	2	98
C=CCOc1ccc(C2C(C#N)=C(N)N(Nc3ccccc3)C3=C2C(=O)CCC3)cc1OC (stereo not given)	i	0.94	nt	nt	0.0	-12	101
O=C(CCl)N(c1ccccc1)C1CCS(=O)(=O)C1 (stereo not given)	i	0.84	nt	nt	-1.6	0	99
CSc1cccc(NC(=O)CCCOc2ccccc2)c1	i	0.97	nt	nt	-0.3	-6	112
COc1cc(/C=C(\C#N)C(=O)NC2CCCCC2)ccc1OCc1ccc(C(=O)O)cc1	i	0.84	-33	117	nt	-2	104
CCC1=C(OC(=O)N(CC)CC)N2C(=O)OC(=NCc3ccccc3)[C@]2(C)[C@H]2C1=CC[C@H]1C(=O)N(c3ccccc3)C(=O)[C@H]12	i	0.97	nt	nt	nt	nt	97
Cc1ccccc1-n1nc(C)c2cc(C(=O)NCc3cccnc3)sc21	i	1.1	nt	nt	-0.7	13	100
COc1ccc(NC(=O)CN(C)Cc2c(F)cccc2Cl)cc1S(=O)(=O)N1CCCCC1	i	0.93	-5	95	nt	2	109
O=c1[nH]c(CSc2nc3ccccc3o2)nc2c1cnn2-c1ccccc1	i	1	-18	118	0.3	-17	106
Cc1ccccc1CC1(CO)CCCN(C(=O)CCCN2CCCCC2=O)C1 (stereo not given)	i	1.1	nt	nt	nt	-2	101
CC(C)n1c(/C=C/c2ccccc2)nc2ccccc21	i	0.98	nt	nt	-1.6	-3	102
CCC1(C)CC(CCNS(=O)(=O)c2ccc(C)cc2)(c2ccc(C)cc2)CCO1 (stereo not given)	i	0.93	-93	68	-2.4	-4	105
C=CCc1cc(OC)ccc1OCCOCCN1CCc2ccccc2C1	i	0.97	-144	90	nt	-6	101
COc1ccc([N+](=O)[O-])cc1NC(=O)C(C)OC(=O)/C=C/c1ccco1 (stereo not given)	i	0.97	-107	113	-0.5	-7	106
O=C(Cn1c(=O)n(-c2ccccc2)c(=O)c2sccc21)N1CCCC1	i	1.1	nt	nt	-2.1	-5	99
CN1C(=O)c2ccc(N3CCCC3)cc2C1=O	i	1.1	30	128	-0.4	-2	104
CCN(CC)S(=O)(=O)c1ccc(OC)c(NS(=O)(=O)c2ccc(F)cc2)c1	i	0.95	17	82	0.2	0	128
Cc1ccc(S(=O)(=O)NC(=S)NC2CCCCC2)cc1	i	1.1	28	117	nt	2	100
Cc1ccc(N(Cc2ccc(C(=O)NC3CCCCC3)cc2)S(C)(=O)=O)cc1C	i	0.82	-7	113	-0.9	1	107
COc1ccccc1NS(=O)(=O)c1cc(NC(=O)c2ccc(=O)[nH]c2)ccc1N1CCOCC1	i	0.99	46	120	-0.2	-2	103
CCOC(=O)C(c1ccccc1)C(Nc1ccc(F)cc1)c1ccccn1 (stereo not given)	i	0.96	nt	nt	nt	nt	102
COc1ccc(Br)c(OC)c1C(=O)NC(=O)Nc1nc(C)cc(C)n1	i	1.2	nt	nt	nt	nt	96
Cn1c(=O)c2cc(S(=O)(=O)NCCC(=O)NC3CCCCCCC3)ccc2n(C)c1=O	i	0.91	36	86	-1.5	4	103
CC(=O)c1nn(-c2cccc(Br)c2)cc1C(=O)c1ccc(Cl)cc1	i	0.85	nt	nt	7.5*	1	105
COc1ccc(C2=C/C(=C\c3ccc(OC(C)=O)cc3)C(=O)O2)cc1	i	0.97	nt	nt	nt	-5	98
O=C(Nc1nc2nccc(-c3ccccc3)n2n1)c1ccccc1	i	0.92	nt	nt	nt	nt	102
COC(=O)CNc1c(-c2ccccc2)nc2ccc(Br)cn12	i	0.9	-14	104	-2.3	4	55
O=C1C(Cc2ccccc2)S/C(=N/N=C/c2ccco2)N1c1ccccc1 (stereo not given)	i	0.94	-7	102	0.7	-7	100

Filtered by structure, those above with fluorine
SMILES	HSV replic up	HSV replic up primary fold	Insulin prom inh	Insulin prom inh cell count	GALR2 ag	PKD1 inh	RGS16-Gao HTS
O=C(CCC(=O)N1CCN(c2ccc(F)cc2)CC1)c1ccc(F)cc1	i	1	nt	nt	nt	nt	109
CC(C)(C)n1nnnc1C(c1cccc(C(F)(F)F)c1)N1CCC(O)CC1 (stereo not given)	i	0.87	nt	nt	nt	0	101
Cc1ccc2nc(SC(C(=O)Nc3ccc(F)cc3)c3ccccc3)[nH]c2c1 (stereo not given)	i	1.1	23	103	0.1	-2	103
O=c1cc(O)c2sc(Nc3ccc(F)c(Cl)c3)nc2[nH]1	i	0.91	nt	nt	nt	-5	99
CC(OC(=O)C1CC1)C(=O)Nc1cc(C(F)(F)F)ccc1Cl (stereo not given)	i	0.99	21	100	nt	10	101
Cc1oc2ccc(OCc3ccccc3F)cc2c1C(=O)O	i	1	-7	72	0.0	0	44
CCOc1ccc(N2C(=O)CC(NCc3ccc(F)cc3)C2=O)cc1 (stereo not given)	i	0.98	-40	89	-0.4	-4	98
O=C(Nc1ccccc1)c1sc2cc(C(F)(F)F)cnc2c1-c1cccs1	i	0.93	-22	76	-0.7	-6	89
Fc1ccc2c(c1)C(c1ccncc1)=NNC(c1ccc(Br)cc1)=N2	i	0.94	-3	122	-0.8	-5	109
Cc1c(C(=O)NCc2cccnc2)sc2nc(-c3ccc(F)cc3)cn12	i	0.89	nt	nt	-1.6	54*	101
COc1ccc(NC(=O)CN(C)Cc2c(F)cccc2Cl)cc1S(=O)(=O)N1CCCCC1	i	0.93	-5	95	nt	2	109
CCN(CC)S(=O)(=O)c1ccc(OC)c(NS(=O)(=O)c2ccc(F)cc2)c1	i	0.95	17	82	0.2	0	128
CCOC(=O)C(c1ccccc1)C(Nc1ccc(F)cc1)c1ccccn1 (stereo not given)	i	0.96	nt	nt	nt	nt	102
